# Compound activity as filed in PubChem.
# LANA-H2A inh: blocks KSHV LANA binding to histone H2A/H2B; Q9QR71; cell-free LANA-H2A/H2B peptide, fluorescence polarization; inhibition, % (test concentration not listed); hit rate 0.6% among 320,000; in the data active = inhibition mostly above about 10%, no sharp cut-off; inactive = mostly below about 6.7%;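 note: stock transfer was 7.5 nL into about 10 µL; 0% = median of vehicle wells and 100% = median of positive control wells; one replicate is shown; the record names a cut of 25% in any replicate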
# Target sequence (Q9QR71 whole entry, looked up): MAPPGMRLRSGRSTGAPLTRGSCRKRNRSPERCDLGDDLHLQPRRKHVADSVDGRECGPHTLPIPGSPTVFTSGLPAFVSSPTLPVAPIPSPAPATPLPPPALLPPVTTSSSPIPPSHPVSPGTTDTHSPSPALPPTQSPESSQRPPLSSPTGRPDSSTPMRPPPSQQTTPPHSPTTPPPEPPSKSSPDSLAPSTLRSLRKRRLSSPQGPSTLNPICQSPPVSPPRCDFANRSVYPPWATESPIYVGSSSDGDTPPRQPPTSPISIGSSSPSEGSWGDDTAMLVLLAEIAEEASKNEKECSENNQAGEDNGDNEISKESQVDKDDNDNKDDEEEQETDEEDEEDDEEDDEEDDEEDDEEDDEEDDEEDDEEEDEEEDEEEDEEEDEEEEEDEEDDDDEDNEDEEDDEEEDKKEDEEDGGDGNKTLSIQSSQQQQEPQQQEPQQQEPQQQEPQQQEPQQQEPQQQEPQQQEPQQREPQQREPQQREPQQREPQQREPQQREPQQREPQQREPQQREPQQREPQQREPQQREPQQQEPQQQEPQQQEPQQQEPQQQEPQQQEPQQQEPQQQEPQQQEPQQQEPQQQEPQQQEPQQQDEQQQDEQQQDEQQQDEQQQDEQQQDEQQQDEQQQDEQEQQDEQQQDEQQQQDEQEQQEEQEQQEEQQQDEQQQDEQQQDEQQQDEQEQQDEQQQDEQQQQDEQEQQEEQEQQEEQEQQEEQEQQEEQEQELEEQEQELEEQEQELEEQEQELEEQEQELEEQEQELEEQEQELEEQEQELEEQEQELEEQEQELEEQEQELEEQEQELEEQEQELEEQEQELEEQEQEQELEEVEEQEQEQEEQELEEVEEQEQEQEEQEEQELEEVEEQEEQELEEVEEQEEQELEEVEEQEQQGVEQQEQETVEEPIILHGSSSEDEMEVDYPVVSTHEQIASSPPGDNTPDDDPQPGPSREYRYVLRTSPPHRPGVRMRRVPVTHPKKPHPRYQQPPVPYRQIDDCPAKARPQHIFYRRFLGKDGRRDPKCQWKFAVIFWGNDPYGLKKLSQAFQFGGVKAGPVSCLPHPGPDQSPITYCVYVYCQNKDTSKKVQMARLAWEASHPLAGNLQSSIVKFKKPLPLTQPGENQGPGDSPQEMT
# T cruzi repl: T. cruzi replication inhibition; T. cruzi beta-gal in NIH3T3, luminescence, 90 h; inhibition, % (no concentration beside the values); hit rate 1.4% among 300,000; AID 1885;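 active = mean inhibition across valid replicates above about 55%, limit read from the data; inconclusive = mean below that limit but half or more replicates reach it; inactive = mean below it, under half of replicates reach it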;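 note: signal also drops with host cell toxicity which is not excluded here; 0% = plate median of DMSO wells and 100% = zero luminescence signal; higher percent means less beta-gal luminescence so fewer parasites; stock transfer was 50 nL into about 50 µL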
# Vif TR-FRET: HIV-1 Vif–A3G interaction blockers – biochemical, TR-FRET, GST-Vif 1-94, biotin-A3G peptide, dose response retest, primary screen (AID 1117319). TR-FRET GST-Vif / biotin-A3G peptide binding; higher % means a stronger effect; test concentration not given here; strong numbers were not always called active. one-dose inhibition, %; IC50 in µM for titrated hits. hit rate 0.57% among 260,000;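 active = above the screen mean plus three standard deviations and confirmed in dose response; inconclusive = results disagree or hit not tested in dose response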;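 note: Vif residues 1-94 fused to GST binding biotinylated APOBEC3G peptide 110-148; 0% = full assay without inhibitor and 100% = GST in place of GST-Vif; retest series ran down from 100 µM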
# RanGTP-Imp inh: disruptors of Ran-importin-beta complex formation – biochemical, FRET, CFP-Ran, YFP-importin-beta, homogeneous, primary screen; cell-free CFP-Ran/YFP-importin-beta FRET ratio; hit rate 1.1% among 300,000; inhibition, % (concentration not given with the values);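 active = most replicates above 15%; inconclusive = exactly half above 15%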;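 note: 0% = DMSO wells and 100% = Ran loaded with GDP instead of GTP; wells of about 40 µL received 100 nL stock; the first replicate is given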
# Bfl-1 A1 inh: inhibitors of the anti-apoptotic protein A1, read as caspase activation; MEF A1-2A-BIM cells, Caspase-Glo 3/7 luminescence, 3 h; percent of clofoctol response, vehicle zero; caspase activation, % (test concentration not listed); hit rate 0.066% among 330,000;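 active = over half of replicate activation scores above 10%, or exactly half above 10 with the replicate mean above 10; inconclusive = replicate mean below 10 yet half the replicates above 10; inactive = over half of replicates below 10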;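 note: wells of about 30 µL received 50 nL stock; many hits fall short of the cut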
# Beta cell apopt: beta cell apoptosis inhibition; protection from apoptosis, % (no concentration beside the values); hit rate 0.8% among 300,000; AID 435005; INS-1E cytokine-induced death, ATP luminescence, 48 h; percent of positive-control rescue, neutral wells zero;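 active = all replicates at 75% or more, or half of them and the mean; inconclusive = half reach 75% but not the mean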;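 note: 0% = cytokine-treated negative control wells and 100% = positive control rescue; higher means more ATP so stronger rescue from cytokine killing; wells of about 40 µL received 100 nL stock; the first replicate is given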
# Calb FLC: C. albicans growth modulation with fluconazole. C. albicans CaCi-2 (fluconazole-resistant clinical isolate) + fluconazole, Alamar Blue growth, 48 h. growth inhibition, % (no concentration beside the values). hit rate 0.57% among 300,000. AID 1979;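 active = most replicates above 75%; inconclusive = exactly half above 75%; inactive = most below 75%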;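 note: all wells also contain fluconazole at 8 µg/ml as a sub-toxic cotreatment; 0% = median of DMSO wells and 100% = median of geldanamycin control wells; wells of about 8 µL received 7.5 nL stock; the first replicate is given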
# MLL AF4-AF9 inh: inhibitors of human MLL-AF4/AF9 interaction; AlphaScreen, biotin-AF4 peptide binding to FLAG-AF9; inhibition, % at 10 µM; hit rate 0.47% among 350,000;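 active = every replicate reaching a set inhibition limit, whatever the replicate mean, cut at about 25% in these data; inconclusive = mean inhibition reaches that limit but some replicates miss it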;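 note: 0% = plate neutral control median and 100% = total signal loss; the record names both 10 and 1 µM as test concentration; the first replicate is given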
# * hit, by the source's call; ? = inconclusive; / = no result given; & = joins results of further samples.
SMILES	LANA-H2A inh	T cruzi repl	Vif TR-FRET	RanGTP-Imp inh	Bfl-1 A1 inh	Beta cell apopt	Calb FLC	MLL AF4-AF9 inh
Cc1ccc(C(=O)C(OC(=O)CN2C(=O)c3ccccc3C2=O)c2ccccc2)cc1 (stereo not given)	7.6	-14.4	0.1%	?	1.1	-5.7	-6.6	/
O=C(Oc1ccccc1)c1cc2ccccc2oc1=O	-1.7	/	-2.2%	/	0.9	0.1	6.6	4.4
COc1ccc(N2C(=O)C3CCCN3C2c2cc(OC)c(OC)cc2OC)cc1 (stereo not given)	-0.9	-8.0	0.6%	3.8	0.7	-2.1	-4.7	-1.4
Cc1nn2c(=S)[nH]nc2[nH]c1=O	-7.7	-9.4	14.1%	-2.2	-0.3	-3.8	-2.0	-7.3
CC(=O)N1CCN(c2ccc(NC(=O)c3ccc(Cl)c([N+](=O)[O-])c3)cc2)CC1	-0.2	-2.8	-1.0%	0.7	0.7	-7.7	4.7	-1.6
Cc1c(C(=O)N2CCC2)oc2ccc(Cl)cc12	0.1	/	-3.4%	/	-0.2	0.6	/	-0.2
CCN1CCN(C(=O)C2CCN(S(=O)(=O)c3ccc(SC)cc3)CC2)CC1	0.3	-8.4	/	-0.2	-0.1	-0.3	9.5	-1.6
Cc1cc(C)n(-c2nc3c(c(=O)[nH]c(=O)n3C)n2CC(O)COc2ccccc2)n1 (stereo not given)	-0.6	-5.2	-0.6%	0.4	1.2	-2.7	-5.3	/
CC(C)Cn1c(SCC(=O)Nc2cccc(S(N)(=O)=O)c2)nc2ccccc2c1=O	-3.2	-3.0	0.4%	3.7	1.2	0.9	4.1	-2.2
CCOC(=O)C1(CCOc2ccccc2)CCN(S(=O)(=O)N(C)C)CC1	2.9	-9.6	/	?	0.1	-2.1	7.4	-11.5

# Among those listed so far, these have an NH in an aromatic ring:
SMILES	LANA-H2A inh	T cruzi repl	Vif TR-FRET	RanGTP-Imp inh	Bfl-1 A1 inh	Beta cell apopt	Calb FLC	MLL AF4-AF9 inh
Cc1nn2c(=S)[nH]nc2[nH]c1=O	-7.7	-9.4	14.1%	-2.2	-0.3	-3.8	-2.0	-7.3
Cc1cc(C)n(-c2nc3c(c(=O)[nH]c(=O)n3C)n2CC(O)COc2ccccc2)n1 (stereo not given)	-0.6	-5.2	-0.6%	0.4	1.2	-2.7	-5.3	/

# Other records follow:
SMILES	LANA-H2A inh	T cruzi repl	Vif TR-FRET	RanGTP-Imp inh	Bfl-1 A1 inh	Beta cell apopt	Calb FLC	MLL AF4-AF9 inh
COc1cccc(CN(C)C(=O)c2ccc3c(=O)n4c(nc3c2)CCC4)c1	-3.3	0.0	2.2%	4.1	-0.5	0.1	2.1	-2.4
CCC(C)Nc1nc(N)c([N+](=O)[O-])c(N2CCCCCC2)n1 (stereo not given)	-3.0	16.7	2.1%	-1.2	1.0	-2.1	26.6	7.3
CCC(=O)Nc1c(-c2ccc(OC)cc2)c(=O)c2ccccc2n1C	2.8	1.0	-6.5%	4.2	0.8	-3.9	0.3	/
COc1ccc(CNC(=O)Nc2cccc(Cl)c2)cc1	-3.6	/	/	/	-2.6	0.8	-2.4	/
Cc1[nH]c2ccccc2c1SCC(=O)N1CCCc2ccccc21	1.0	0.9	-2.2%	-2.3	0.3	-9.4	2.6	9.5
N#Cc1cnc(Nc2nc3ccccc3o2)nc1-c1ccccc1	0.2	-21.4	-7.3%	5.8	-4.3	16.7	65.8	/
Cc1ccc(Cn2nc(C)c(NC(=O)c3nn(C)cc3Cl)c2C)cc1	1.6	-7.2	0.6%	-2.6	-0.3	-4.3	-11.9	/
Nc1ccc2oc(=O)c(-c3ccccc3)cc2c1	2.5	-9.6	-2.3%	-3.7	-3.0	-5.9	/	1.0
CCOC(=O)C1=C(C)Nc2nnnn2C1c1cccc(OC)c1OC (stereo not given)	2.3	-4.8	1.2%&0.2%	2.8	1.6	-1.2	-4.6	/
CCOC(=O)N1CCN(C(=O)C2CCCN(S(=O)(=O)c3cccnc3)C2)CC1 (stereo not given)	0.0	-5.9	-4.7%	0.0	-0.7	-5.6	-0.3	-4.9
Cc1ccc(N(C(=O)CNC(=O)c2ccco2)C(C(=O)NC2CCCCC2)c2cccnc2)cc1F (stereo not given)	-2.3	-10.7	/	1.7	-0.3	-0.7	-11.0	1.9
CCCN1CCN(CCCNC(=O)c2ccc3c(c2)NC(=O)c2ccccc2S3)CC1	12.8	3.7	/	0.2	0.4	-4.4	-10.3	6.2
COc1ccc(-c2n[nH]c(C)c2-c2cnn(-c3ccccc3)c2)c(O)c1C	1.2	1.3	6.7%	-1.3	-0.3	3.0	22.2	/
CCc1ccc(/C=N/N2CCN(c3ccccn3)CC2)cc1	-0.5	-0.4	-0.8%	1.5	-3.1	-3.7	-3.5	4.8
COC(=O)C(C(=O)Nc1ncccn1)C1CCCCCC1 (stereo not given)	0.6	-14.2	4.8%	3.1	2.8	1.4	20.5	/
O=C(NCCc1c[nH]c2ccccc12)C(=O)NCC1OCCCN1S(=O)(=O)c1ccccc1 (stereo not given)	-0.3	2.9	5.1%	?	-0.2	-7.5	-2.0	8.3
CCCC1(c2ccccc2)NC(=O)N(CC(=O)Nc2cc(OC)cc(OC)c2)C1=O (stereo not given)	-7.0	0.7	-4.6%	2.6	0.3	-9.9	2.9	0.7
CC(C)(C)c1ccc(C(=O)NNC(=O)c2cccc(Br)c2)cc1	0.7	1.1	3.2%	1.8	-1.6	38.9	-0.8	/
COc1ccc(C(N)=O)c(OCC(=O)Nc2cc(C)on2)c1	-0.2	/	-11.4%	/	1.7	-4.7	/	-1.5
CC(=O)Nc1ccc(/C=C(\C#N)C(=O)NCc2ccccc2)cc1	4.9	-14.6	10.1%	1.4	1.3	3.2	17.5	-1.0
Cc1cc(C)n(CC(=O)NNC(=O)COc2ccc(F)cc2Br)n1	2.1	/	4.8%	/	0.2	1.1	/	-0.5
CCOC(=O)Cc1nc2ccccc2n(CC#N)c1=O	2.8	-12.4	3.8%	-0.6	-0.6	-1.6	?	-1.5
COc1ccc(/C=N/NC(=O)c2cccc([N+](=O)[O-])c2)cc1OC(=O)c1ccccc1	-1.2	9.8	4.5%	2.7	-0.2	6.5	13.5	/
O=C(NC1CCOc2ccccc21)C1CCCC1 (stereo not given)	-2.4	-2.3	/	-4.3	0.2	/	-1.2	-3.8
O=C(NCCCc1ccccc1)c1ccccc1O	0.4	1.9	1.4%	-3.5	-0.1	-7.8	-18.7	/
Cc1ccccc1CS(=O)(=O)CCC(=O)O	-0.9	-13.4	-5.6%	0.7	-0.3	-5.4	-4.0	-2.8
COc1ccc([N+](=O)[O-])cc1N(CC(=O)NCCCOC(C)C)S(C)(=O)=O	2.7	-19.6	2.4%	2.3	0.4	/	3.4	1.4
C/C(Cn1nc([N+](=O)[O-])cc1C)=N\NC(=O)COc1c(Cl)cc(Cl)cc1Cl	1.3	0.1	/	1.5	-0.1	-7.6	3.9	/
Cc1ccc(C2(C)NC(=O)N(CC(=O)Nc3ccc(S(=O)(=O)Nc4nccs4)cc3)C2=O)cc1 (stereo not given)	-0.8	-7.1	1.1%	-3.0	2.1	4.0	2.1	-32.6
O=C(O)c1ccc(-n2ccnc2)c([N+](=O)[O-])c1	-3.0	-5.4	2.1%	-0.4	1.3	/	-4.5	/

# Two consecutive entries already listed, quoted:
SMILES	LANA-H2A inh	T cruzi repl	Vif TR-FRET	RanGTP-Imp inh	Bfl-1 A1 inh	Beta cell apopt	Calb FLC	MLL AF4-AF9 inh
Cc1cc(C)n(CC(=O)NNC(=O)COc2ccc(F)cc2Br)n1	2.1	/	4.8%	/	0.2	1.1	/	-0.5
CCOC(=O)Cc1nc2ccccc2n(CC#N)c1=O	2.8	-12.4	3.8%	-0.6	-0.6	-1.6	?	-1.5

# (more compounds)
SMILES	LANA-H2A inh	T cruzi repl	Vif TR-FRET	RanGTP-Imp inh	Bfl-1 A1 inh	Beta cell apopt	Calb FLC	MLL AF4-AF9 inh
C/C(=N\NC(=O)C1CC1)c1ccc(Cl)c(Cl)c1	0.4	3.5	-3.2%	0.2	0.4	4.1	-6.9	/
O=c1c(Cl)c(Cl)cnn1Cc1ccc(F)cc1	2.1	-17.5	/	-1.1	0.5	111.6*	4.3	-0.7
CC1CCN(S(=O)(=O)c2c[nH]c(=O)[nH]c2=O)CC1	-1.0	-1.2	8.1%	-3.3	-0.1	-2.8	-0.7	-3.8
O=C(O)CC12CC3CC(C1)CC(n1ncc(N4CCC5(CC4)OCCO5)c(Cl)c1=O)(C3)C2	1.5	0.7	0.1%	-0.6	0.0	-3.9	2.2	-33.0
CN(C)/N=C/c1ccc(Sc2ccccc2[N+](=O)[O-])o1	2.9	25.7	6.9%	?	-0.1	-5.2	-2.9	13.0
CC(Oc1ccc(Cl)cc1Cl)C(=O)NCCC1=CCCCC1 (stereo not given)	-1.9	16.1	-0.9%	-0.1	0.2	-1.5	-32.2	/
CC(=O)Oc1c(C)cc(Cl)cc1C(=O)Nc1ccc([N+](=O)[O-])cc1Cl	-12.1	48.4	/	/	-7.6	106.3*	/	-2.8
O=C(NCCCN1CCCC1=O)c1cncc(Br)c1	-0.4	-8.4	30.4%	/	-0.7	-1.6	10.1	/
Cc1cccc(CN2CCN(c3ccccn3)CC2)c1	3.6	3.9	7.3%	0.4	-0.5	-3.0	-9.2	/
Cc1nc(NS(=O)(=O)c2ccccc2)sc1C(C)(C)C	0.8	-18.0	/	4.1	-0.5	-6.1	10.4	/
COCCOc1ccc(C(F)(F)F)cc1NC(=O)c1ccc(C)cc1	5.3	26.1	/	1.7	0.0	-1.2	58.2	/
O=C(COC(=O)c1ccc[nH]c1=O)NC1CC1	-1.9	/	/	/	-0.7	-8.4	/	-2.5
O=C(N/N=C/c1ccccn1)c1ccc([N+](=O)[O-])cc1	0.7	-19.7	/	-1.3	0.8	7.4	6.5	-3.2
Cc1cc2c(cc1S(=O)(=O)N1CCOCC1)NC(=O)CO2	4.1	7.4	/	5.7	0.5	0.3	-2.1	2.5
NC(=O)COc1ccc(Cc2ncc(C(F)(F)F)cc2Cl)cc1	7.6	-9.1	12.2%	-1.5	-0.5	-4.9	-12.3	-0.8
O=C(CSC1=NS(=O)(=O)c2cc(Cl)ccc2N1)NCc1ccccc1	1.6	-16.2	2.4%	1.2	-0.2	/	0.0	-3.1
O=S(=O)(NCC(c1cccnc1)N1CCN(c2ccc(F)cc2)CC1)c1ccccc1 (stereo not given)	1.3	58.7*	/	2.5	0.5	1.9	-0.2	11.1
